High-throughput results (PubChem)
KCNQ2 enhance: enhances the rat KCNQ2 potassium channel. O88943. CHO-K1 KCNQ2, FluxOR thallium flux fluorescence; hits give high values. B-score at 10 µM. actives 0.54% (n = 310,000). AID 2239;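 active = fluorescence ratio B-score at least 3 SD of library B-scores, with initial fluorescence B-score within 3 SD, cut at about 5.3 in these data; same plate scores as AID 2156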;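 also: B-score of peak minus minimum over baseline fluorescence ratio after K+ and Tl+ stimulus; positive B-score means potentiation of KCNQ2 with more thallium influx and brighter signal; only the inactives scoring about 0 or higher are listed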
Target sequence (O88943 whole entry, looked up): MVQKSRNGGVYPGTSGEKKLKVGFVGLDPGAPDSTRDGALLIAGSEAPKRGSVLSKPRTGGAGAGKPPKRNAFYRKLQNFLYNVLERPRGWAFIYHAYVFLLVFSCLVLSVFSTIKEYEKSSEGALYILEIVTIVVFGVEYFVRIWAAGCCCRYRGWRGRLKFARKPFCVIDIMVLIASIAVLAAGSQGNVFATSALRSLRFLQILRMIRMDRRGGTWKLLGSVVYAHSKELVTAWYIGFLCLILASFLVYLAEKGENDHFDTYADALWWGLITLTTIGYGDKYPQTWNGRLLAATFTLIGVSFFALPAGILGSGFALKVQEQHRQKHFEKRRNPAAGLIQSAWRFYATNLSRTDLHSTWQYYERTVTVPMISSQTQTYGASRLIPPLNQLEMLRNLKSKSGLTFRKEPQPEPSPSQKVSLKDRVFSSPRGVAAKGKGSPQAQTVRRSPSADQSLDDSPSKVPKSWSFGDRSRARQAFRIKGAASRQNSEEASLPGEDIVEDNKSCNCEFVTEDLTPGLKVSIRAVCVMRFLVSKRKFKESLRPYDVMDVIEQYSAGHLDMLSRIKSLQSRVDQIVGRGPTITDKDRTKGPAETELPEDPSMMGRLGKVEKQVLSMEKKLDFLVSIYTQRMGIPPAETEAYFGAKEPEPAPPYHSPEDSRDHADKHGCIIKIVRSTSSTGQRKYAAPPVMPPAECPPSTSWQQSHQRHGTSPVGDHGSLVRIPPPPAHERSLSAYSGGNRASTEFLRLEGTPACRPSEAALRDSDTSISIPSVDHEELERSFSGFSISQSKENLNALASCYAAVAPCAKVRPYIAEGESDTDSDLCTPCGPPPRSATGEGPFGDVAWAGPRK
KCNQ2 enhance baseline: recorded beside KCNQ2 enhance, whose call it bears; B-score; compound at 10 µM; measured here: initial fluorescence intensity artifact check;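 brightness before thallium and not channel activity; 0 = typical well and far values either way flag optical interference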
Starred values were filed as active, the others as inactive. Some of the compounds tested (hit frequency here may not be typical).

Compound | KCNQ2 enhance | KCNQ2 enhance baseline
COc1ccccc1N1CCN(C(=O)c2cc(-c3ccc(Br)cc3)on2)CC1 | 1.5 | -0.37
C#CCN1C(=O)S/C(=C/c2cc(C)n(CC)c2C)C1=O | 0.79 | -0.52
CCN(C(=O)COC(=O)c1cc([N+](=O)[O-])ccc1N1CCCCC1)C1CCS(=O)(=O)C1 (stereo not given) | 0.54 | -0.34
CC(=O)c1cccc(NC(=S)Nc2cccc3ccccc23)c1 | 0.2 | -0.06
Cc1ccc(NC(=O)CCNS(=O)(=O)c2ccc(Br)cc2)cc1S(=O)(=O)N1CCOCC1 | 1.1 | -1.1
O=C(Nc1nccs1)C1C2/C=C\CCCCC21 (stereo not given) | 0.99 | 1.7
COc1ccc(C(=O)Nn2c(C)nnc2-n2nc(C)cc2C)cc1OC | 0.8 | 0.02
O=C(NCc1cccs1)c1cnn2cccnc12 | 0.46 | -0.78
CCC(=O)Nc1ccc2c(c1)ncn2-c1ccc(OC)cc1 | 1 | 0.1
Cc1cccc(/C=N/NC(=O)Cn2nnnc2N)n1 | 2 | 0.06
OCC1(CO)COC2(CCCC2)N1 | 0.73 | 2.4
O=C(NCCNc1ccc([N+](=O)[O-])cc1)c1cccc(Br)c1 | 0.04 | -0.61
Cc1cc(C)cc(N(CC(=O)O)S(=O)(=O)c2c(C)[nH]c(=O)[nH]c2=O)c1 | 2.5 | -4
O=C(CN1CCN(c2cccc(Cl)n2)CC1)N1CC(O)CO1 (stereo not given) | 1.6 | -1.1
O=C(NCCc1csc(-c2ccccc2)n1)c1c(F)cccc1Cl | 0.93 | -0.14
CSc1nc(SCC(=O)O)c2sc3nc(-c4ccccc4)c4c(c3c2n1)CCC4 | 1 | 0.61
Cc1oc(C)c(C(=O)O)c1C(=O)O | 0.71 | 0.1
CS(=O)(=O)N(CC(=O)N1CCCCC1)C1CCCCC1 | 13* | -0.15*
O=C(NNC(=O)C1C2C=CC(C2)C1C(=O)O)c1cc(Cl)ccc1O (stereo not given) | 0.4 | 0.09
Cc1ccc2nc(SCC(=O)N/N=C/c3ccco3)cc(C)c2c1 | 2 | -2.4
O=S(=O)(NN1CCOCC1)c1ccc(Cl)s1 | 0.61 | 0.77
COc1cc(NC(=O)CNC(=O)Cn2ccc3ccccc3c2=O)cc(OC)c1OC | 1.5 | -0.07
COc1cc(/C=C/C(=O)OCN2C(=O)c3ccccc3C2=O)ccc1OC(F)F | 0.73 | 0.1
COc1ccc(NC(=O)CCC(=O)Nc2cc(OC)c(NC(=O)c3cccs3)cc2OC)cc1 | 0.08 | 0.92
O=Cc1ccc(Oc2ncccn2)cc1 | 1.3 | -0.43
CC1CCC2C(=O)N(c3ccc(S(=O)(=O)c4ccccc4)cc3)C(=O)C2C1 (stereo not given) | 0.02 | 1.5
CCOc1ccc(NC(=O)NC(C)CC)cc1 (stereo not given) | 0.18 | 0.07
CC(C)(C)S(=O)(=O)/C(C#N)=N/Nc1ccc(Cl)cc1 | 0.95 | 0.42
Cc1ccsc1/C=N/n1c(COc2ccccc2)n[nH]c1=S | 0.7 | -2.2
N#CCc1nn2c(-c3ccccc3)ccnc2c1C#N | 0.15 | -0.25
CC(C)(C)n1nc2c(c1NC(=O)Cc1cccc3ccccc13)CS(=O)(=O)C2 | 2.6 | 0.08
CCCCCCCCOC(=O)c1ccc(N)cc1 | 0.04 | -0.3

Given with two lines to a compound: entries from further up.
Screens in order – KCNQ2 enhance, KCNQ2 enhance baseline
Cc1ccc(NC(=O)CCNS(=O)(=O)c2ccc(Br)cc2)cc1S(=O)(=O)N1CCOCC1
 : 1.1, -1.1
O=C(Nc1nccs1)C1C2/C=C\CCCCC21 (stereo not given)
 : 0.99, 1.7

(cont.)
Compound | KCNQ2 enhance | KCNQ2 enhance baseline
O=C(Cn1nc(C(F)(F)F)c2c1CCCC2)NCCN1CCOCC1 | 1.1 | 2.1
COc1cccc(-c2cc(C(=O)N/N=C/c3ccc(OC)c(COC(C)=O)c3)c3ccccc3n2)c1 | 0.73 | 0.53
COCCCN1C(=O)C(=O)/C(=C(/O)c2ccc(S(=O)(=O)N3CCOCC3)cc2)C1c1ccc(OC)cc1 (stereo not given) | 0.05 | 3.2
Oc1ccc(C[C@H]2CNC(=S)N2CCc2cc(C(F)(F)F)cc(C(F)(F)F)c2)cc1 | 1.7 | -0.59
CC1CCC(NC(=O)c2ccc(-n3cncn3)c([N+](=O)[O-])c2)CC1 (stereo not given) | 1.2 | -0.04
CCN(CC)Cc1csc2ccc(Br)cc12 | 0.05 | 1.6
COc1ccc(CCNC(=O)CSc2ccccc2)cc1OC | 1.1 | 0.16
CCCCNc1nnc(SCC(=O)c2c[nH]c3ccccc23)s1 | 0.38 | 0.1
O=C(Nc1ccccc1Br)C1CCCN1S(=O)(=O)c1cccc2nsnc12 (stereo not given) | 0.54 | 3
C/C=C(/C)C(=O)Nc1cccc(C2=NOC3(C2)C[C@@H](C(N)=O)N(C(=O)[C@H]2CCC(=O)N2)C3)c1 (stereo not given in full) | 0.61 | 0.57
N#Cc1ccc(Oc2ccc(C(N)=O)cc2)cc1C#N | 0.02 | -0.98
Cc1cc(=O)oc2cc(OCC(=O)OC(C)C(=O)NC3CCCC3)ccc12 (stereo not given) | 0.19 | -0.01
CS(=O)(=O)N1CCC(C(=O)NCc2ccco2)CC1 | 1.2 | -0.78
CCc1nc(N)nc2c1C(=O)CC(C)(C)C2 | 1.5 | -0.52
CCOC(=O)/C=C/C(=O)OCC(=O)Nc1ccc(OC)c(Cl)c1 | 0.11 | -0.18
CCCCn1c(N)c(N(CC(C)C)C(=O)C2CC(=O)N(c3ccccc3C(C)CC)C2)c(=O)[nH]c1=O (stereo not given) | 0.39 | 2.2
CN(C)S(=O)(=O)c1cc(NC(=O)CN2CCN(c3ccccc3F)CC2)ccc1Cl | 0.64 | -0.46
CCOc1ccc(C2C(C(=O)c3ccco3)=C(O)C(=O)N2CCN2CCOCC2)cc1 (stereo not given) | 0.06 | 1.5
Cc1ccc(CNC(=O)C2CC3Cn4c(nc5cc(C)c(C)cc54)C3N2C)o1 (stereo not given) | 0.02 | -1.5
CCN(CC(=O)O)S(=O)(=O)c1cc(Cl)ccc1Cl | 0.01 | -0.3
COc1ccc(C2N(S(=O)(=O)c3ccccc3)CCN2S(=O)(=O)c2ccc(C)cc2)cc1 (stereo not given) | 2.1 | 0.99
COc1cc(/C=N/Nc2ccnc(=O)[nH]2)ccc1O | 1.6 | 0.81
O=C(CN1C(=O)COc2ccc(S(=O)(=O)N3CCCCC3)cc21)NCc1ccc(F)cc1 | 2.4 | -2
COc1ccc(NC2CC(=O)NC2=O)cc1 (stereo not given) | 0.6 | -0.86
COC(=O)CSc1ccnc2cc(Cl)ccc12 | 2.6 | 0.63
COc1ccc(CN2CCC(CNS(=O)(=O)c3cccc(C(F)(F)F)c3)CC2)cc1 | 2.1 | 0.43
NC(=O)C1CCN(C(c2ccccc2Cl)c2nnnn2Cc2ccc3c(c2)OCO3)CC1 (stereo not given) | 0.17 | 1.8
CN(C)/C=N/c1nc(Sc2ccc(C(F)(F)F)cc2[N+](=O)[O-])n[nH]1 | 1.6 | -0.1
CC(=O)Nc1ccc(-c2csc(NC(C)c3ccccc3)n2)cc1 (stereo not given) | 1.7 | -1.5
CCOc1ccc(NC(=O)CN(C)C(=O)Cc2c[nH]c3ccccc23)cc1OCC | 2.8 | -0.58
COc1ccc2c(c1)C(C1C(=O)CCCC1=O)c1ccccc1O2 (stereo not given) | 0.47 | 0.63
CC(Oc1ccc2c(-c3ccccc3)cc(=O)oc2c1)C(=O)NCCCN1CCOCC1 (stereo not given) | 0.03 | 0.09
CCOc1ccc(NC(=O)[C@@H](NC(=O)c2ccccc2Br)C(C)C)cc1 | 0.23 | -0.74
COc1ccc(CCNC(=O)C2CCC(CNS(=O)(=O)c3ccccc3)CC2)cc1OC (stereo not given) | 0.14 | 0.76
COc1ccc(NC(=S)Nc2ccc(N)c([N+](=O)[O-])c2)cc1 | 0.22 | 0
CCN(CC)S(=O)(=O)c1ccc(NC(=O)COC(=O)c2c[nH]c(=O)[nH]c2=O)cc1 | 2.5 | -0.8
COc1ccc(C(=O)NC(=S)Nc2ccc(CN3CCOCC3)cc2)cc1Cl | 0.26 | 1.1
CC(=O)C[C@H]1c2cc(C(F)(F)F)ccc2S(=O)(=O)N1c1ccc(N(C)C)cc1 | 1.5 | 0.24
O=C1N=C(N2CCCCC2)S/C1=C\c1ccc(Cl)cc1 | 0.81 | 0.83
O=C(C(=O)N1CCN(c2ccccc2Cl)CC1)c1c[nH]c2ccccc12 | 0.17 | -0.2
Cc1ccccc1CNC(=O)CC1C(=O)NCCN1CC1CCCCC1 (stereo not given) | 0.01 | 0.5
CCCC(=O)Nc1ccc(C(=O)NNC(=O)c2cccc([N+](=O)[O-])c2)cc1 | 0.23 | 1.9
O=C(NCCN1CCOCC1)c1ccc2c(c1)N(Cc1ccc(Cl)cc1)CCS2 | 0.49 | -0.42
CCCn1nc(C(=O)OCC(=O)NC(C)c2ccccc2)c2ccccc2c1=O (stereo not given) | 2.3 | -0.37
O=C(CSc1cn(CCNC(=O)c2ccccc2)c2ccccc12)NCc1ccco1 | 0.01 | 0.11
Cc1ccnc(SCCn2c(N3CCCCC3)nc3c2c(=O)n(C)c(=O)n3C)n1 | 0.03 | 0.29
CC(=O)C1=C(C)Nc2ncnn2C1c1ccc(C)cc1 (stereo not given) | 0.24 | 0.3
CC(=O)Oc1c(I)cc(I)cc1C(=O)Nc1ccc(Cl)cc1 | 0.26 | -1.8
CCCCC(NC(=O)c1ccc(Cl)cc1)C(=O)O (stereo not given) | 0.95 | -0.11
O=c1cc(NCCc2ccccc2)c2ccccc2o1 | 0.25 | -0.45
O=C(CN1CCCCC1)N/N=C/c1ccc(Cl)cc1 | 0.4 | 0.41
O=C(NNC(=O)c1cc2cc3ccccc3nc2s1)c1ccc(F)cc1 | 0.04 | -0.46
CCCCN1CC[C@H]2C=CC[C@@H](C(=O)Nc3ccccc3)[C@H]2C1=O | 0.86 | 0.09
CCOC(=O)C1CCN(Cc2ccc(-c3ccccc3)cc2)CC1 | 0.79 | -2.6
CNC(=O)CN(C)S(=O)(=O)c1ccc(F)cc1 | 1.9 | -0.1
CCCn1c(Nc2ccc(Cl)cc2)nc2ccccc21 | 2.4 | 0.08

(cont.)
Compound | KCNQ2 enhance | KCNQ2 enhance baseline
Cc1noc(NS(=O)(=O)c2ccc(NC(=O)CS(=O)(=O)c3ccccc3)cc2)c1C | 0.95 | 0.06
CCCCN(CC)CCNC(=O)CN(C)S(=O)(=O)c1ccc2c(c1)c(=O)n(C)c(=O)n2C | 1.1 | -1.3
CCOCCCNC(=O)N[C@@H](C)C(=O)OC | 0.51 | 0.69
COc1cc(C(=O)Nc2nnc(-c3sccc3C)s2)cc(OC)c1OC | 0.53 | -0.73
O=C(Nc1cccnc1)C1CCC(CNS(=O)(=O)c2cccc3nsnc23)CC1 (stereo not given) | 0.45 | -0.45
COc1ccc(S(=O)(=O)N2N=C(c3cccc(NS(C)(=O)=O)c3)CC2c2ccco2)cc1 (stereo not given) | 0.51 | 1.5
CCOC(=O)C1CCN(C(=O)c2c(-c3c(Cl)cccc3Cl)noc2C)CC1 | 1.9 | -1.4
C=CCOC(=O)c1ccc(-n2cncn2)nc1 | 0.03 | 0.21
CCCS(=O)(=O)N1CCN(C(=O)c2ccccc2F)CC1 | 0.06 | -0.18
O=C(C1COc2ccccc2O1)N1CCN(c2nc3ccc([N+](=O)[O-])cc3s2)CC1 (stereo not given) | 0.64 | -0.2
CC1(C)CN(c2ccc(F)cc2)C1=O | 1 | -0.1
O=C(O)/C(=C\c1ccco1)NC(=O)c1ccc(Br)o1 | 0.91 | -0.84
COc1ccc(NS(=O)(=O)c2ccc3oc4ccccc4c3c2)cn1 | 0.36 | -0.57
Fc1ccc(N2CCN(C3CCC(c4ccccc4)CC3)CC2)cc1 (stereo not given) | 0.49 | -0.4
O=C(Nc1nnc(C2CC2)s1)c1cc(-c2ccccc2)nn1-c1ccccc1 | 2.1 | -1.2
COc1cc(OC)c(OC)cc1CNCC1COc2ccccc2O1 (stereo not given) | 0.32 | -0.16

Some of the entries so far, with values under each structure:
Below each compound: KCNQ2 enhance | KCNQ2 enhance baseline
> CC1(C)CN(c2ccc(F)cc2)C1=O
  1 | -0.1
> O=C(O)/C(=C\c1ccco1)NC(=O)c1ccc(Br)o1
  0.91 | -0.84
> COc1ccc(NS(=O)(=O)c2ccc3oc4ccccc4c3c2)cn1
  0.36 | -0.57
> Fc1ccc(N2CCN(C3CCC(c4ccccc4)CC3)CC2)cc1 (stereo not given)
  0.49 | -0.4
> O=C(Nc1nnc(C2CC2)s1)c1cc(-c2ccccc2)nn1-c1ccccc1
  2.1 | -1.2

Remaining list, next part.
Compound | KCNQ2 enhance | KCNQ2 enhance baseline
Cc1ccc(-c2nc3ccc([N+](=O)[O-])cc3[nH]2)cc1 | 3.4 | 0.65
CCc1nnc(NC(=O)CCC(=O)N2CCN(Cc3ccc(F)cc3)CC2)s1 | 1.3 | -0.66
O=C(NC1CCCCC1)C(c1cccs1)N(CC1CCCO1)C(=O)c1csnn1 (stereo not given) | 0.25 | 0.26
Cc1cccc2cc(C#N)c(NCCCNS(=O)(=O)c3ccc(Cl)cc3)nc12 | 0.45 | -1.9
COc1ccc2nc(C)[nH]c(=O)c2c1 | 0.82 | 0.72
O=C(Cc1c[nH]c2ccccc12)Nc1nccs1 | 0.74 | -2.2
O=C(O)c1cccc(-n2c(/C=C/c3cccc([N+](=O)[O-])c3)nc3ccccc3c2=O)c1 | 1.1 | -0.27
Cc1nc(SCC(=O)NCC2CCCO2)c2c3c(sc2n1)CCCC3 (stereo not given) | 5 | 0.41
c1ccc2c(c1)NC(c1ccncc1)n1c-2nc2ccccc21 (stereo not given) | 1.1 | -2
COc1ccc(OC)c(NC(=O)CNC(=O)Cn2ccc3ccccc3c2=O)c1 | 0.6 | 0.38

Compounds listed so far containing a tert-butyl group:
Compound | KCNQ2 enhance | KCNQ2 enhance baseline
CC(C)(C)S(=O)(=O)/C(C#N)=N/Nc1ccc(Cl)cc1 | 0.95 | 0.42
CC(C)(C)n1nc2c(c1NC(=O)Cc1cccc3ccccc13)CS(=O)(=O)C2 | 2.6 | 0.08
